Source: PubChem BioAssay
NOMO-1 viab – STK33 inhibitor candidate reducing NOMO-1 cell viability; NOMO-1 AML viability, CellTiter-Glo luminescence, 72 h; inhibition, % (no concentration beside the values); 37,000 compounds, 7.5% hits; AID 2330;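 active means most replicates above 80%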;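 further: wells of about 30 µL received 25 nL stock; 0% = median of vehicle wells and 100% = reference inhibitor level; the first replicate is given; inactives centre near 10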
Active calls of the source: *.

Preview, six compounds:
Cc1noc(C)c1NC(=O)N(C)C[C@@H]1Oc2ccc(NC(=O)Cn3cnnn3)cc2C(=O)N([C@H](C)CO)C[C@@H]1C was read as NOMO-1 viab -11.6.
C[C@H]1CN([C@@H](C)CO)C(=O)c2cccc(NC(=O)Nc3ccc(F)cc3)c2O[C@H]1CN(C)C(=O)Nc1cccc2ccccc12 was read as NOMO-1 viab -4.3.
`Cc1ccc(C(=O)NC(=O)CSc2n[nH]c(N)n2)cc1` gave NOMO-1 viab -5.7.
`CNC[C@H]1Oc2ccc(NS(=O)(=O)c3cn(C)cn3)cc2CC(=O)N([C@@H](C)CO)C[C@H]1C` gave NOMO-1 viab -1.1.
`CC(C)OC(=O)CSc1nc2c(c(-c3ccccc3)c1C#N)CCC2` gave NOMO-1 viab 14.0.
Screening O=C(Nc1ccccc1C(=O)O)c1cccc(S(=O)(=O)Nc2ccccc2Cl)c1 returned NOMO-1 viab -2.5.

This part in full, from the first entry:
Cc1noc(C)c1NC(=O)N(C)C[C@@H]1Oc2ccc(NC(=O)Cn3cnnn3)cc2C(=O)N([C@H](C)CO)C[C@@H]1C was read as NOMO-1 viab -11.6.
C[C@H]1CN([C@@H](C)CO)C(=O)c2cccc(NC(=O)Nc3ccc(F)cc3)c2O[C@H]1CN(C)C(=O)Nc1cccc2ccccc12 was read as NOMO-1 viab -4.3.
`Cc1ccc(C(=O)NC(=O)CSc2n[nH]c(N)n2)cc1` gave NOMO-1 viab -5.7.
`CNC[C@H]1Oc2ccc(NS(=O)(=O)c3cn(C)cn3)cc2CC(=O)N([C@@H](C)CO)C[C@H]1C` gave NOMO-1 viab -1.1.
`CC(C)OC(=O)CSc1nc2c(c(-c3ccccc3)c1C#N)CCC2` gave NOMO-1 viab 14.0.
Screening O=C(Nc1ccccc1C(=O)O)c1cccc(S(=O)(=O)Nc2ccccc2Cl)c1 returned NOMO-1 viab -2.5.
`C[C@@H]1CCCCO[C@H](CN(C)S(=O)(=O)c2cn(C)cn2)[C@@H](C)CN([C@H](C)CO)C(=O)c2cc(NC(=O)Nc3ccc(F)cc3)ccc2O1` gave NOMO-1 viab -0.9.
For C[C@H]1CN([C@@H](C)CO)C(=O)c2cccc(NS(=O)(=O)c3ccc(Cl)cc3)c2O[C@@H]1CN(C)C the results were NOMO-1 viab -2.3.
Screening C[C@@H]1CN([C@@H](C)CO)C(=O)c2cc(NC(=O)Nc3ccccc3)ccc2O[C@H]1CN(C)C(=O)Nc1ccc(F)cc1 returned NOMO-1 viab 1.4.
Cc1ccc(S(=O)(=O)N(C)C[C@H]2Oc3ccc(NC(=O)CCC(F)(F)F)cc3C(=O)N([C@H](C)CO)C[C@@H]2C)cc1 was read as NOMO-1 viab -8.9.
CN1CCN(C(=O)CN(C)S(=O)(=O)c2ccc3ccccc3c2)CC1 was read as NOMO-1 viab 9.2.
`C[C@H]1CN([C@@H](C)CO)C(=O)Cc2cc(NC(=O)Cc3ccccc3)ccc2O[C@@H]1CN(C)C(=O)Nc1ccc2c(c1)OCO2` gave NOMO-1 viab 13.5.
Screening C[C@H]1CN([C@@H](C)CO)C(=O)c2cc(NC(=O)NC3CCCCC3)ccc2O[C@@H]1CN(C)C returned NOMO-1 viab 18.7.
Screening COc1ccc(NC(=O)Nc2ccc3c(c2)C(=O)N([C@H](C)CO)C[C@H](C)[C@@H](CN(C)C(=O)Nc2ccccc2)O3)cc1 returned NOMO-1 viab 3.5.
For C[C@@H]1CCCCO[C@H](CN(C)S(=O)(=O)c2ccc(Cl)cc2)[C@@H](C)CN([C@H](C)CO)C(=O)c2cc(NC(=O)CCCCCC(=O)Nc3ccccc3N)ccc2O1 the results were NOMO-1 viab 43.4.
C[C@@H]1CN([C@H](C)CO)C(=O)c2cccc(NS(C)(=O)=O)c2O[C@H]1CN(C)Cc1ccc2c(c1)OCO2 was read as NOMO-1 viab -13.4.
C[C@@H]1CN([C@@H](C)CO)C(=O)Cc2cc(NC(=O)Cc3ccccc3)ccc2O[C@@H]1CN(C)C was read as NOMO-1 viab -1.5.
Screening C[C@H]1CN([C@@H](C)CO)C(=O)c2cccc(NC(=O)Nc3ccc(C(F)(F)F)cc3)c2O[C@@H]1CN(C)Cc1ccccc1 returned NOMO-1 viab 72.2.
For CC1(C)[C@@H]2CC=C(CO[C@@H]3O[C@H](CO[C@@H]4O[C@@H](CO)[C@H](O)[C@H]4O)[C@@H](O)[C@H](O)[C@H]3O)[C@H]1C2 the results were NOMO-1 viab -7.1.
`CC(C)n1cnc2c(NCc3ccccc3)nc(NCCO)nc21` gave NOMO-1 viab 38.3.
O=C(c1ccccc1)c1ccc(-c2ccccc2)cc1 was read as NOMO-1 viab 91.3*.
C[C@@H]1CN([C@@H](C)CO)C(=O)Cc2cc(NC(=O)Nc3ccccc3)ccc2O[C@@H]1CN(C)Cc1ccc(-c2ccccc2)cc1 was read as NOMO-1 viab 42.8.
COc1ccc([N+](=O)[O-])cc1N(CC(=O)Nc1cccc(C(F)(F)F)c1)S(C)(=O)=O was read as NOMO-1 viab 25.0.
Cn1c(SCc2ccccc2C#N)nnc1-c1ccncc1 was read as NOMO-1 viab 2.1.
COc1ccc(S(=O)(=O)N(C)C[C@@H]2Oc3ccc(NS(=O)(=O)c4cn(C)cn4)cc3CC(=O)N([C@H](C)CO)C[C@@H]2C)cc1 was read as NOMO-1 viab 15.7.
For CSc1cccc(NC(=O)c2cc3c(ccc4ccccc43)o2)c1 the results were NOMO-1 viab 19.6.
O=C(O)c1cc(=O)c2ccc(Cl)cc2[nH]1 was read as NOMO-1 viab 5.7.
`COc1ccc(C(=O)Nc2ccccc2C(=O)NC(C(=O)O)C(C)C)cc1` (centres undefined) gave NOMO-1 viab 0.4.
COc1ccc(CN(C)C[C@H]2Oc3ccc(NC(=O)Nc4ccc(F)cc4)cc3C(=O)N([C@@H](C)CO)C[C@@H]2C)cc1 was read as NOMO-1 viab 3.0.
For C[C@@H]1CN([C@@H](C)CO)C(=O)c2cccc(NC(=O)c3ccncc3)c2O[C@@H]1CN(C)S(=O)(=O)c1ccc(Cl)cc1 the results were NOMO-1 viab 8.4.
`COc1ccc(NC(=O)N(C)C[C@@H]2Oc3ccc(NC(=O)CCCCCC(=O)Nc4ccccc4N)cc3C(=O)N([C@H](C)CO)C[C@H]2C)cc1` gave NOMO-1 viab -7.3.
Screening Cc1cc(Cl)ccc1NC(=O)COc1ccc(C(=O)Nc2cc(Cl)ccc2Cl)cc1 returned NOMO-1 viab 10.6.
Screening COc1ccc(NC(=O)N(C)C[C@@H]2Oc3ccc(NC(=O)NC4CCCCC4)cc3CC(=O)N([C@H](C)CO)C[C@@H]2C)cc1 returned NOMO-1 viab 3.1.
COc1ccc(S(=O)(=O)Nc2cccc3c2O[C@@H](CN(C)Cc2ccc(C(=O)O)cc2)[C@H](C)CN([C@@H](C)CO)C3=O)cc1 was read as NOMO-1 viab -9.6.
For CC(C)NC(=O)N(C)C[C@H]1Oc2ccc(NC(=O)Nc3ccc(F)cc3)cc2C(=O)N([C@H](C)CO)C[C@@H]1C the results were NOMO-1 viab 4.1.
Screening COc1ccc(S(=O)(=O)Nc2ccc3c(c2)CC(=O)N([C@H](C)CO)C[C@@H](C)[C@@H](CN(C)C(=O)NC2CCCCC2)O3)cc1 returned NOMO-1 viab -12.5.
CC(C)NC(=O)N(C)C[C@@H]1Oc2c(NC(=O)CCCCCC(=O)Nc3ccccc3N)cccc2C(=O)N([C@H](C)CO)C[C@@H]1C was read as NOMO-1 viab 10.9.
Cc1noc(C)c1S(=O)(=O)Nc1ccc2c(c1)C(=O)N([C@H](C)CO)C[C@@H](C)[C@H](CN(C)S(=O)(=O)c1cccs1)O2 was read as NOMO-1 viab 19.0.
For O=C(COc1ccccc1Cl)Nc1ccccc1C(=O)Nc1ccccc1 the results were NOMO-1 viab 16.0.
Screening Cc1ccc(S(=O)(=O)N(C)C[C@H]2Oc3c(NC(=O)NC(C)C)cccc3C(=O)N([C@H](C)CO)C[C@@H]2C)cc1 returned NOMO-1 viab 5.7.
C[C@H](CO)N1C[C@H](C)[C@H](CN(C)Cc2ccc(Cl)c(Cl)c2)Oc2ccc(NS(=O)(=O)c3cccs3)cc2CC1=O was read as NOMO-1 viab 39.6.
`C[C@@H]1CN([C@H](C)CO)C(=O)c2cc(NS(=O)(=O)c3cccs3)ccc2O[C@H]1CN(C)CC1CCCCC1` gave NOMO-1 viab 11.6.
For Cc1ccc(S(=O)(=O)Nc2ccc3c(c2)C(=O)N([C@H](C)CO)C[C@H](C)[C@@H](CN(C)S(=O)(=O)c2ccc(F)cc2)O3)cc1 the results were NOMO-1 viab -3.9.
`O=c1ccc(Oc2nc(N3CCCCC3)nc(N3CCOCC3)n2)n[nH]1` gave NOMO-1 viab 5.4.
For C[C@H](CO)N1C[C@H](C)[C@H](CN(C)S(=O)(=O)c2ccc(Cl)cc2)Oc2c(NC(=O)c3cnccn3)cccc2C1=O the results were NOMO-1 viab 44.2.
For C[C@H]1CN([C@@H](C)CO)C(=O)Cc2cc(NC(=O)Cn3cnnn3)ccc2O[C@@H]1CN(C)S(=O)(=O)c1ccc(Cl)cc1 the results were NOMO-1 viab 9.7.
`COc1ccc(NC(=O)N(C)C[C@H]2OCCCC[C@@H](C)Oc3ccc(NC(=O)Nc4cccc5ccccc45)cc3C(=O)N([C@H](C)CO)C[C@@H]2C)cc1` gave NOMO-1 viab 13.1.
C[C@@H]1CN([C@@H](C)CO)C(=O)Cc2cc(NS(=O)(=O)c3cn(C)cn3)ccc2O[C@@H]1CN(C)Cc1ccc(-c2ccccc2)cc1 was read as NOMO-1 viab 2.5.
Screening C[C@@H]1CCCCO[C@H](CN(C)C(=O)Nc2ccccc2)[C@@H](C)CN([C@H](C)CO)C(=O)c2cc(NC(=O)Cc3ccccc3)ccc2O1 returned NOMO-1 viab 11.0.
Screening CC(C)CC(Nc1ncnc2sc3c(c12)CCC3)C(=O)O (centres undefined) returned NOMO-1 viab -2.5.
Cc1ccc(NC(=O)C(C)N(c2ccccc2)S(C)(=O)=O)cc1C (centres undefined) was read as NOMO-1 viab 6.3.
Screening CS(=O)(=O)N(CC(=O)Nc1cccc(Br)c1)c1ccc(F)c(Cl)c1 returned NOMO-1 viab 45.3.
`O=C(CCn1cnc2ccccc2c1=O)Nc1ccc(S(=O)(=O)N2CCOCC2)cc1` gave NOMO-1 viab -13.9.
Screening C[C@@H]1CN([C@H](C)CO)C(=O)c2cc(NC(=O)c3ccncc3)ccc2O[C@H]1CN(C)C(=O)Nc1cccc2ccccc12 returned NOMO-1 viab 22.9.
For C[C@@H]1CCCCO[C@H](CN(C)C(=O)Nc2ccc(F)cc2)[C@@H](C)CN([C@H](C)CO)C(=O)c2cc(NC(=O)Nc3cccc4ccccc34)ccc2O1 the results were NOMO-1 viab 26.8.
Screening COc1ccc(NC(=O)Nc2cccc3c2O[C@@H](CN(C)S(=O)(=O)c2cccs2)[C@@H](C)CN([C@H](C)CO)C3=O)cc1 returned NOMO-1 viab 14.2.
O=C1C[C@@H](c2ccccc2)Oc2cc(O)cc(O)c21 was read as NOMO-1 viab 20.3.
`Cc1ccc(S(=O)(=O)N(C)C[C@@H]2Oc3ccc(NS(=O)(=O)c4ccc(Cl)cc4)cc3C(=O)N([C@H](C)CO)C[C@H]2C)cc1` gave NOMO-1 viab 0.2.
`C[C@H]1CN([C@@H](C)CO)C(=O)Cc2cc(NC(=O)Nc3cccc4ccccc34)ccc2O[C@@H]1CN(C)S(=O)(=O)c1cccs1` gave NOMO-1 viab -16.2.
C[C@@H]1CN([C@H](C)CO)C(=O)c2cccc(NC(=O)Nc3ccc4c(c3)OCO4)c2O[C@@H]1CN(C)Cc1ccc(C(=O)O)cc1 was read as NOMO-1 viab 4.6.
COc1ccc2nc(SCC(=O)Nc3cccc([N+](=O)[O-])c3)[nH]c2c1 was read as NOMO-1 viab 23.7.
`C[C@H](CO)N1C[C@H](C)[C@H](CN(C)C(=O)Nc2ccccc2)Oc2ccc(NC(=O)C3CC3)cc2CC1=O` gave NOMO-1 viab 23.1.
Cn1nnnc1SCC(=O)Nc1ccc(C(=O)O)cc1 was read as NOMO-1 viab 2.7.
For CC(=O)Nc1ccc(Nc2ncnc3c2cnn3-c2ccc(C)cc2C)cc1 the results were NOMO-1 viab -8.8.
C[C@H]1CN([C@@H](C)CO)C(=O)c2cccc(NC(=O)Nc3ccc(C(F)(F)F)cc3)c2O[C@H]1CN(C)Cc1ccc2c(c1)OCO2 was read as NOMO-1 viab 71.1.
Cc1ccc(S(=O)(=O)N(C)C[C@@H]2Oc3ccc(NC(=O)Nc4ccc(C(F)(F)F)cc4)cc3C(=O)N([C@H](C)CO)C[C@@H]2C)cc1 was read as NOMO-1 viab 115.2*.
Screening Cc1ccc(S(=O)(=O)N(C)C[C@@H]2Oc3c(NC(=O)c4ccc(-c5nccs5)cc4)cccc3C(=O)N([C@H](C)CO)C[C@H]2C)cc1 returned NOMO-1 viab -7.2.
`CS(=O)(=O)N(CC(=O)Nc1ccc2c(c1)OCCO2)c1cc(Cl)c(Cl)cc1Cl` gave NOMO-1 viab 12.1.
For C[C@@H]1CN([C@@H](C)CO)C(=O)c2cc(NS(=O)(=O)c3ccc(Cl)cc3)ccc2O[C@H]1CN(C)S(=O)(=O)c1cn(C)cn1 the results were NOMO-1 viab -14.4.
Screening C=C(C)C(O)Cc1c(OC)cc2oc(=O)ccc2c1OC (centres undefined) returned NOMO-1 viab 11.0.
`C[C@@H]1CCCCO[C@@H](CN(C)Cc2ccccc2)[C@@H](C)CN([C@H](C)CO)C(=O)c2cc(NS(=O)(=O)c3cn(C)cn3)ccc2O1` gave NOMO-1 viab 1.2.
For COC(=O)c1ccc(NC(=O)CN(c2ccc(Cl)cc2C)S(C)(=O)=O)cc1 the results were NOMO-1 viab 4.8.
`C[C@H]1CN([C@@H](C)CO)C(=O)Cc2cc(NC(=O)Cc3ccccc3)ccc2O[C@@H]1CN(C)Cc1ccc(C(F)(F)F)cc1` gave NOMO-1 viab 32.0.
`N#Cc1c(C(F)(F)F)cc(-c2cccs2)oc1=S` gave NOMO-1 viab 23.1.
For C=C1C(=O)O[C@H]2C1CCC(C)=C1C(=O)C=C(C)[C@@H]12 (some centres undefined) the results were NOMO-1 viab 114.9*.

An excerpt; the hit share may differ from the screen's.
